Source: PubChem (ICCB-Longwood Screening Facility, Harvard Medical School)
Anaer choline gr = choline-fed anaerobic bacterial growth inhibition; calls only; Gram-negative bacterium anaerobic choline minimal medium, absorbance growth; hits give low values; many inactives read as strong as hits in the columns shown; 55,000 compounds, 0.2% hits;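 active = growth z-score on choline under -2 at 7 or 20 h with little or no fall on glycerol, limits in tiers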;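 also: stock transfer was 300 nL into about 50 µL; the organism is E. coli; final concentration not given here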
Anaer choline gr early = recorded beside Anaer choline gr, whose call it bears; z-score; measured here: choline growth z-score, timepoint 1;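 score of optical density at 7 h as mean of two plates; lower means less growth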
Active calls of the source: *; i = inactive; & = joins results of further samples. These rows are one share of the data; rates above refer to the full screens.

SMILES | Anaer choline gr | Anaer choline gr early
COc1ccc(-c2cc(C)no2)cc1S(=O)(=O)CCC(=O)N1CCc2ccccc2C1 | i | -0.04
COc1cccc(-c2nn(Cc3cccc(C)c3)c(=O)c3noc(C)c23)c1 | i | 1.06
O=c1n(CCc2ccccc2)nc2c(S(=O)(=O)N3CCCCC3)cccn12 | i | -0.18
O=C1CCC(c2ccc(-n3ccnc3)cc2)=NN1 | i | -2.57
C=CCNC(=O)CCc1nnc2n(CCC)c(=O)c3sccc3n12 | i | 1.58
O=C(CSC1=Nc2ccccc2N=C(c2ccc(Cl)cc2)C1)Nc1ccc2c(c1)OCCO2 | i | 0.51
Cc1cccc(Cl)c1NC(=O)CCc1nc(CSc2nc3ccccc3s2)no1 | i | 0.54
Cc1ccc(-n2ccc(=O)c(-c3nc(-c4ccc(F)c(Br)c4)no3)n2)cc1C | i | -1.54
Cc1cc(C)c(S(=O)(=O)Nc2ccc3[nH]c(=O)oc3c2)c(C)c1 | i | -0.47
Fc1cccc(CN2CCC3(CC2)N=C(C2CC2)NO3)c1 | i | -0.02
Cc1cc(Cl)ccc1NS(=O)(=O)c1ccc2c(c1)NC(=O)C(C(=O)N1CCCC1)S2 (stereo not given) | i | -0.33
COc1ccc(NC(=O)Cn2c(=O)n(-c3cccc(C)c3)c(=O)c3c2c2cc(C)ccc2n3C)cc1OC | i | 0.67
Fc1cccc(CN=C2Nc3ccccc3NC23CCCCCC3)c1 | i | -1.1
O=C(Nc1nnc(SCc2cc(=O)n3ccccc3n2)s1)c1ccccc1 | i | 0.8
Cc1ccc(S(=O)(=O)Nc2c(-n3cnnc3)nn(C)c2C)cc1C | i | -0.74
CNC(=O)N1CCCC(c2cccc(C(=O)NC(C)c3ccc(F)cc3)c2)C1 (stereo not given) | i | 0.37
O=C(NCc1ccc2[nH]c3c(c2c1)CCCC3)c1ccccc1 | i | -0.23
COc1cc(C2CC(=O)Nc3c2cnn3-c2nc3ccccc3s2)ccc1OCCc1ccccc1 (stereo not given) | i | 0.19
O=C(/C=C/c1ccc(O)c(O)c1)OCCc1ccccc1 | i | -0.2&-0.13&0.32
CCOC(=O)c1nc(-c2nnn(-c3ccc(F)cc3)c2C)sc1C | i | 1.08
CC(=O)Nc1ccc(-c2noc(C3CCCN(C(=O)c4ccc(F)c(F)c4)C3)n2)cc1 (stereo not given) | i | -1.31
CCOc1ccc(OCC)c(NC(=O)CN2C(=O)C(C)(C)c3ccccc32)c1 | i | -0.54
Cc1oc(-c2ccccc2)nc1Cn1nnc(-c2nc(-c3ccccc3)no2)c1C | i | -0.6
Cc1c(C(N)=O)nnn1-c1ccc(Cl)cc1 | i | -1.94
COc1cccc(CNC(=O)C2(C)CCCN(S(C)(=O)=O)C2)c1 (stereo not given) | i | -0.69
CCOC(=O)c1c(C)[nH]c(C)c1S(=O)(=O)NCC(=O)N1CCc2ccccc2C1 | i | -0.13
COc1cccc(N2CC(C(=O)Nc3nnc4n3CCS4)CC2=O)c1 (stereo not given) | i | -2.29
Cc1ccc(C)c(N2CCN(C(=O)CCn3nnc4cc(S(=O)(=O)N5CCCC5)ccc43)CC2)c1 | i | -0.46
Cn1c(C(=O)NCc2cccc(Cl)c2)c(N2CCCC2=O)c2cc(F)ccc21 | i | 0.06
CCc1nnc(-c2cn(CC(=O)NCc3cccc(OC)c3)c3ccccc23)o1 | i | -0.26
O=C1c2cccnc2C(=O)N1c1ccc(Cl)cc1 | i | -1.02
COc1cccc(OC)c1C(=O)NCC(c1ccc(N(C)C)cc1)N(C)C (stereo not given) | i | -1.06
COc1cccc(-c2ccc(SCc3nc(-c4ccc(Br)cc4)no3)nn2)c1 | i | 2.3
Cc1nc(-c2cc(S(=O)(=O)N3CCN(c4ccccc4F)CC3)c(C)s2)cs1 | i | 0.83
CCc1cc(C(=O)N2C(C)CCCC2C)no1 (stereo not given) | i | -0.08
Cc1cc(C(=O)NNCc2ccccc2)no1 | i | 0.33
O=C1Nc2cc(C(=O)N3CCN(c4ccccc4)CC3)ccc2N2CCCCC12 (stereo not given) | i | 0.91
C=CCn1c(SCc2nc(-c3ccc(Br)cc3)no2)nc2cc3c(cc2c1=O)OCO3 | i | 0.59
O=C(Nc1ccc2c(c1)OCO2)Nc1nccn(-c2ccc3c(c2)CCC3)c1=O | i | 0.67
C=CCN(c1nc2nc(C)cc(C)n2n1)S(=O)(=O)c1ccc(Cl)cc1 | i | -0.22
COc1ccc(-c2csc3c(=O)n(C(C)C)cnc23)cc1 | i | 0.71
O=C(NC1CC(=O)N(c2cccc(F)c2)C1)C1CC1 (stereo not given) | i | -2.14
Cc1ccc(-c2csc(NC(=O)CSc3nnc4[nH]c(=O)c(C)nn34)n2)cc1 | i | 0.12
Cc1cc(C)c(S(=O)(=O)N2CCN(c3cccc(Cl)c3)CC2)c(C)c1 | i | 1.93
Cc1cc(NCCC2=CCCCC2)n2nc(C)c(-c3ccc(F)cc3)c2n1 | i | 3.99

A second format for 4 compounds above:
| SMILES | Anaer choline gr | Anaer choline gr early |
| --- | --- | --- |
| COc1cccc(-c2ccc(SCc3nc(-c4ccc(Br)cc4)no3)nn2)c1 | i | 2.3 |
| Cc1nc(-c2cc(S(=O)(=O)N3CCN(c4ccccc4F)CC3)c(C)s2)cs1 | i | 0.83 |
| CCc1cc(C(=O)N2C(C)CCCC2C)no1 (stereo not given) | i | -0.08 |
| Cc1cc(C(=O)NNCc2ccccc2)no1 | i | 0.33 |

Going on with the list.
SMILES | Anaer choline gr | Anaer choline gr early
CC(C)c1ccc(S(=O)(=O)Nc2cc(C(=O)O)cnc2N(C)C)cc1 | i | -0.3
Cc1nc(N=Nc2ccc(S(=O)(=O)O)cc2S(=O)(=O)O)c(COP(=O)(O)O)c(C=O)c1O | i | 0.31
CCC(=O)Nc1cccc(-c2noc(C3CCCN(C(=O)c4ccc(C(C)(C)C)cc4)C3)n2)c1 (stereo not given) | i | 1.02
Cc1ccc2nc(-c3ccc(NC(=O)c4snnc4C)cc3)sc2c1 | i | -0.52
COc1ccc(NC(=O)Cn2nc3c4ccccc4ncn3c2=O)cc1Cl | i | 1.09
Cc1nc(-c2cc(S(=O)(=O)NCc3cccnc3)c(C)n2C)sc1C(=O)N1CCCCC1 | i | 0.51
Cc1ccc(NC(=O)CSc2ncnc3c(-c4ccccc4)c[nH]c23)cc1 | i | 0.54
CCN(CC)c1cc(C)c2cc(NC(=O)CC3CCCC3)ccc2n1 | i | -0.49
Cc1ccc(C2=NC3(CCN(C)CC3)NC(c3cc(Br)ccc3O)C2)cc1 (stereo not given) | i | -0.91
O=C(Nc1cccc(-c2noc(C3CC3)n2)c1)C1CC(=O)N(c2cccc(Cl)c2)C1 (stereo not given) | i | 1.51
CCOc1ccc(-c2ccc(SCc3nc(-c4ccccc4Br)no3)nn2)cc1 | i | 1.23
Cc1ccc(CNc2nc3nc(CNC(C)C)cc(=O)n3[nH]2)cc1 | i | -0.53
COc1ccc(-c2nc(CNC(=O)c3ccc(-c4noc(C5CC5)n4)cc3)no2)cc1 | i | 1.09
O=C(NCCc1cscn1)[C@H]1CSCN1C(=O)c1cccc(F)c1 | i | 0.52
Brc1ccc(-c2ccc(CNCc3ccccn3)o2)cc1 | i | -0.53
COc1ccc2nc(NC(=O)C3CC(=O)N(c4cccc(NC(C)=O)c4)C3)sc2c1 (stereo not given) | i | -1.16
O=C(C1CCCN(S(=O)(=O)c2cccc3nsnc23)C1)N1CCC(Cc2ccccc2)CC1 (stereo not given) | i | 0.53
Cc1noc2c1C(c1ccc(F)cc1)C1=C(CC(c3ccc(Cl)cc3)CC1=O)N2 (stereo not given) | i | -0.09
COc1ccc(CNCCSc2nnnn2C)c(OC)c1 | i | -0.21
O=C(Nc1ccc2c(c1)CCC2)C1CC(=O)N(CCc2c[nH]c3ccc(F)cc23)C1 (stereo not given) | i | -0.48
COc1ccc(CCNC(=O)c2c(O)c3ccccc3[nH]c2=O)cc1OC | i | 0.67
Cc1ccc(Nc2c(-c3ccc(N4CCOCC4)cc3)nc3c(C)cccn23)cc1 | i | 1.3
Cc1nn(-c2ccc(-c3ccccc3)nn2)c(C)c1S(=O)(=O)NCc1ccc2c(c1)OCO2 | i | -0.09
CCCCn1c(O)c(C2=NN(C(C)=O)C(c3ccc4c(c3)OCO4)C2)c(=O)[nH]c1=S (stereo not given) | i | 0.17
Cc1ccc(CNC(=O)C2CCN(c3cncnc3N3CCN(C)CC3)CC2)o1 | i | -2.18
COc1ccc(C(=O)Nc2cccc(-c3cn4ccsc4n3)c2)cc1 | i | 0.41
Cn1c(CN(c2ccc(F)cc2)S(C)(=O)=O)nnc1SCC(=O)NC1CCCCC1 | i | 0.12
CC(=O)/C=C1\C(=O)N(C)c2ccccc21 | i | -1.64
COCCCNC(=O)C1CCN(C(=O)c2cccn2-c2cccnc2)CC1 | i | -0.8
Cc1ccsc1CNCCNC(=O)c1nonc1N | i | -0.25

A different layout for two compounds above:
COc1ccc2nc(NC(=O)C3CC(=O)N(c4cccc(NC(C)=O)c4)C3)sc2c1 (stereo not given)
- Anaer choline gr = i
- Anaer choline gr early = -1.16

CC(=O)/C=C1\C(=O)N(C)c2ccccc21
- Anaer choline gr = i
- Anaer choline gr early = -1.64

Ordered by value in Anaer choline gr early (falling): some entries from above.
| SMILES | Anaer choline gr early |
| --- | --- |
| O=C(NCCc1cscn1)[C@H]1CSCN1C(=O)c1cccc(F)c1 | 0.52 |
| O=C(CSC1=Nc2ccccc2N=C(c2ccc(Cl)cc2)C1)Nc1ccc2c(c1)OCCO2 | 0.51 |
| Cc1oc(-c2ccccc2)nc1Cn1nnc(-c2nc(-c3ccccc3)no2)c1C | -0.6 |

(listing goes on)
SMILES | Anaer choline gr | Anaer choline gr early
COc1ccc(-c2cc(N3CCN(C(=O)Nc4ccccc4)CC3)ncn2)cc1 | i | -0.81
CCc1ccc(NC(=O)N2CCC(n3cnc4cccnc43)CC2)cc1 | i | -0.68
Cc1onc(-c2ccncc2)c1C(=O)NCCCN1CCN(c2cccc(Cl)c2)CC1 | i | -0.19
Cc1ccc(C(=O)Nc2cnc(N3CCN(c4ccccc4Cl)CC3)c(C(=O)O)c2)cc1 | i | 1.14
COc1ccccc1Cn1cnc2c3ccccc3n(Cc3ccccc3)c2c1=O | i | 0.48
CCC1Cn2c(C(=O)NCCN3CCCC3)cc3cccc(c32)O1 (stereo not given) | i | 0.93
O=C1CCC(=O)N1CCc1c[nH]c2ccc(OCc3ccccc3)cc12 | i | 1.17
N=C1C(c2nc3ccccc3c(=O)[nH]2)=C(O)CN1Cc1ccc(Cl)cc1 | i | 0.78
O=C(Cn1c(CN2CCCCC2)nc2ccccc21)N1CCOCC1 | i | -0.29
O=C(O)c1cn(CCc2ccccc2)nc1S(=O)(=O)N1CCSCC1 | i | 0.39
CCn1cnc(S(=O)(=O)N2CCCC(C(=O)N3CCC(N4CCCCC4)CC3)C2)c1 (stereo not given) | i | 0.8
O=C(CSc1nnc2c3sc(N4CCCC4)nc3ncn12)N1CCN(c2ccc(F)cc2)CC1 | i | -1.21
O=C(Nc1ccc(Cl)cc1)C1CCCN(C(=O)c2ccccc2F)C1 (stereo not given) | i | -0.73
OC(c1ccccn1)C1CCN(CC2CCCCC2)CC1 (stereo not given) | i | 0.07
Cc1ccc(NC(=O)c2ccc(Cn3cnc4cccnc43)cc2)cc1 | i | -0.77
COc1ccc(NC(=O)CCC(=O)c2ccccc2)cc1 | i | -2.04
Cn1c(C(=O)N2CCC(c3ccccc3)C2)cc2c(=O)oc3ccccc3c21 (stereo not given) | i | -1.31
O=C(Cn1nc(-c2ccccc2)c2cc(Cl)ccc21)Nc1ccccc1Br | i | 0.3
O=C(Cc1ccc(F)cc1)N1CCN(C(=O)c2cc3cc(Br)ccc3[nH]2)CC1 | i | 1.75
COc1ccc(-c2cc(C(=O)Nc3ccc(C)cc3)nn2C2CCS(=O)(=O)C2)cc1 (stereo not given) | i | 2.49
CCC(=O)Nc1cccc(-c2noc(C3CCCN(C(=O)c4ccccc4)C3)n2)c1 (stereo not given) | i | 0.53
O=C(CSc1nnc2c3ccccc3nc(-c3ccccc3)n12)Nc1ccc2c(c1)OCO2 | i | -1.2
CCC(C)n1nnc2cc(S(=O)(=O)N(C)CC(=O)NCc3ccccn3)ccc21 (stereo not given) | i | -0.46
Cc1nnc(-c2cccn2CC(=O)Nc2ccc(Cl)cc2)o1 | i | 1.76
Cc1[nH]c(C)c(Cl)c(=O)c1Cl | i | 0.25
CCS(=O)(=O)c1ccc(-c2ccc(NC(=O)c3cccc(Br)c3)cc2)nn1 | i | 0.5
Cn1nnc(NCc2ccc(-c3ccc(Cl)cc3)o2)n1 | i | 0.16
CCc1ccc(S(=O)(=O)NCCn2c(-c3ccncc3)nc3cccnc32)cc1 | i | -0.41
Cc1nc2cccnc2n1-c1cc(C(=O)NC(C)C(=O)N2CCCCC2)ccc1Cl (stereo not given) | i | -0.56
Cc1ccc(S(=O)(=O)Nc2ccc(Cn3cnc(-c4nc(-c5ccc(F)cc5)no4)c3)cc2)cc1Cl | i | 0.15

Quoted at random: 4 compounds from above, in no set order.
SMILES | Anaer choline gr | Anaer choline gr early
O=C(NCc1ccc2[nH]c3c(c2c1)CCCC3)c1ccccc1 | i | -0.23
O=c1n(CCc2ccccc2)nc2c(S(=O)(=O)N3CCCCC3)cccn12 | i | -0.18
OC(c1ccccn1)C1CCN(CC2CCCCC2)CC1 (stereo not given) | i | 0.07
O=C(NC1CC(=O)N(c2cccc(F)c2)C1)C1CC1 (stereo not given) | i | -2.14

Going on with the list:
SMILES | Anaer choline gr | Anaer choline gr early
CC1(C)Cc2cccc(OCc3ccc(C(=O)N4CCc5ccccc5C4)cc3)c2O1 | i | 2.68
CCCCN(c1nc2nc(C)c(Cl)c(C)n2n1)S(=O)(=O)c1ccc(Cl)cc1 | i | 0.05
COc1cc(/C=C(\C#N)C(=O)c2ccc(O)c(O)c2)cc(I)c1O | i | -0.36
c1ccc(Cc2nc3sc4c(c3c3nnnn23)CCCC4)cc1 | i | 1.44
COc1ccc(C2c3cccn3-c3sc4c(c3CN2C(=O)Nc2cc(OC)cc(OC)c2)CCN(C)C4)cc1 (stereo not given) | i | 0.71
